TRPML1 blocker: blocks the human TRPML1 channel; activity change, negative = inhibition, % (concentration not given with the values); hit rate 0.02% among 390,000; TRPML1-inducible cells, Ca2+ dye fluorescence, FDSS; active compounds read low; inhibition of EC80 agonist-evoked calcium signal; Q9GZU1; in the data active means activity change below about -50%; inconclusive means about -30% to -50%; inactive means above about -30%;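 also: stimulus is agonist 54-4 at its EC80 concentration; % is scaled to controls: 0 for no effect and ±100 for the full control effect; the text of the record puts the active cut at -80%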
Target sequence (Q9GZU1 whole entry, looked up): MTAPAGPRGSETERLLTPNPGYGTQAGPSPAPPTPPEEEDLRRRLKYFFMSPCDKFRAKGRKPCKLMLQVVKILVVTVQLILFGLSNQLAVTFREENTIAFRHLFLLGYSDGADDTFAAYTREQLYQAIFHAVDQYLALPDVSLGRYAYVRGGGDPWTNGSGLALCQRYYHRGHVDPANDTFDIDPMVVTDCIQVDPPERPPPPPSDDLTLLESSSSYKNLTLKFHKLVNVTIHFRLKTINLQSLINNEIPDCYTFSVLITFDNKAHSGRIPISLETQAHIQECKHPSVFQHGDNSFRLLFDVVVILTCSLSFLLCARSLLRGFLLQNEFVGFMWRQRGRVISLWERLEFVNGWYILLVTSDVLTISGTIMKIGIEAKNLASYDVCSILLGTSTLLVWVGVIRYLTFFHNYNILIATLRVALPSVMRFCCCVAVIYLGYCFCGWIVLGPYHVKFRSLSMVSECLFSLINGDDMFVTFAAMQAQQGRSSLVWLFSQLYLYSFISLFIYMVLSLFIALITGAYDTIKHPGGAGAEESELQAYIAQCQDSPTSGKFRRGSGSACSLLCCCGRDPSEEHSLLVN
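Calcium fluorescence in TRPML1-DL cells induced overnight with Tet: a 110 s read after compound pin addition, then a 110 s antagonist read after challenge with 54-4 at 4 uM final (EC80).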
Menin-MLL FL inh: inhibitors of human menin-MLL interaction, wild-type MLL peptide. Fluorescence polarization, fluorescein-MLL peptide displacement from menin. 290,000 tested, under 10 active. FP activity change, % at 61.4 µM; inconclusive = falling polarisation curve, or a change in total fluorescence; inactive = total fluorescence flat and polarisation flat or rising; no compound was filed as active; the % refers to the polarisation; negative = inhibition;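 also: % of control where 0% means no effect; inhibitors lower the polarisation; unlabelled MLL peptide was the positive control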
gsp antagonist: antagonists of gsp mutant (McCune-Albright syndrome); hit rate 0.4% among 340,000; Potency, µM (highest dose often 76.9 µM), without a hit: at the highest dose activity change, negative = inhibition, most hits filed as inhibitors; gsp-mutant cells, cAMP HTRF, 30 min; control for the full effect not named in the record; active = falling curve of any shape with a large fitted effect; inconclusive = falling curve, mostly with a smaller effect; inactive = flat or rising curve; cell line not stated here;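 also: intracellular cAMP measured with PDE inhibitor Ro 20-1724 present during compound exposure; potency is read from the fitted curve at half-maximal effect; % is scaled to controls: 0 for no effect and ±100 for the full control effect; nearly all actives have a fitted effect of over 65% in size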
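Measurement of cellular cAMP by homogeneous time-resolved fluorescence following a 30 min compound exposure at 37C. The PDE inhibitor […] was present throughout; the assay buffer was DPBS with 0.05% BSA and 0.005% Tween 20.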
ClpP mod: qHTS Assay for Activators of ClpP; ATP-dependent Clp protease proteolytic subunit (Bacillus subtilis (strain 168)), P80244; purified B. subtilis ClpP, FRET peptide cleavage, 20 min; Potency, µM (doses to about 57.5 µM), without a hit: at the highest dose activity change, negative = active; hit rate 1.9% among 340,000; active = well fitted falling curve with a large enough effect; inconclusive = small, poorly fitted or top-dose-only effect; inactive = no such curve, though single readings can be large or run the other way; also: potency is read from the fitted curve at half-maximal effect; the source files actives as falling curves though it sought activators and does not explain the sign; nearly all actives have a fitted effect of over 65% in size; many hits overshoot -100%
Target sequence (P80244 whole entry, looked up): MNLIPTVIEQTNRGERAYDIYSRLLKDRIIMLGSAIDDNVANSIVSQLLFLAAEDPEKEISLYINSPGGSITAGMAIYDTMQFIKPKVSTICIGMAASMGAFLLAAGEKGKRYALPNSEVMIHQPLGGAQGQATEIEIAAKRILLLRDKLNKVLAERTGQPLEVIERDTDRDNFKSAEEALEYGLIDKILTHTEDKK
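Buffer: 100 mM Tris/HCl pH8, 100 mM KCl, 0.05% low protease BSA, 2.5% glycerol, 0.01% Tween-20. ClpP 10 microg/mL final; 20 min RT; delta FRET normalized to ADEP and DMSO controls.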
gsp agonist: agonists of gsp mutant (McCune-Albright syndrome). gsp mutant cells, cAMP HTRF, 30 min; control for the full effect not named in the record. Potency, µM (highest dose often 76.9 µM), for inactives: at the highest dose activation (cAMP increase), hits mostly activators. hit rate 0.13% among 340,000. AID 624287; active = well fitted activation curve with a large enough effect; inconclusive = small, poorly fitted or top-dose-only effect, or another doubt; inactive = no such curve, though single readings can be large or run the other way; cell line not stated here;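 also: phosphodiesterase inhibitor Ro 20-1724 added with compounds to block cAMP breakdown; potency is read from the fitted curve at half-maximal effect; nearly all actives have a fitted effect of over 60% in size; about a fifth of the inactives were tested at one dose only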
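Cells in DMEM/10% FBS with G418 were pretreated with compounds in DMSO plus […] (300 uM stock) for 30 min at 37C. cAMP was measured by HTRF (cAMP-d2 plus anti-cAMP antibody-K) after 30 min at room temperature.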
TRPV1 potentiator: potentiators of human vanilloid receptor 1 (TRPV1); potentiation, % at 8.33 µM; hit rate 0.02% among 320,000; Q8NER1; TRPV1-expressing cells, Fluo-8 calcium influx, capsaicin EC20 potentiation; host cell line not named in the record; control for the full effect not named in the record; active means potentiation above 80%; inconclusive means 30% to 80%; inactive means below 30%; also: 0% is about no effect
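Fluo-8 calcium influx in TRPV1-expressing cells, kinetic read (ex 480/em 520 nm). Compound added and read 3 min for agonist activity, followed by capsaicin at EC20 final and 2 min further read for enhancement.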
Sfp inh: Sfp phosphopantetheinyl transferase inhibition; Q9F4F7; Biochemical Sfp PPTase activity, qHTS; Potency, µM, without a hit: max response, negative = inhibition, usual class: inhibitors; hit rate 3.5% among 310,000; AID 1490; active = well fitted inhibition curve with a large enough effect; inconclusive = small, poorly fitted or top-dose-only effect, or another doubt; inactive = no such curve, though single readings can be large or run the other way;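 also: the enzyme is Sfp with the accession as filed and its product quenches rhodamine fluorescence; potency is read from the fitted curve at half-maximal effect; 0% = enzyme reaction without inhibitor and -100% = no enzyme wells; top concentration of the series not given in the record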
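Sfp 15 nM + cpd, 15 min RT; start w/ rhodamine-CoA 5 uM, BHQ-2-YbbR 12.5 uM (final); 50 mM Hepes pH 7.6, 10 mM MgCl2, 0.01% NP-40, 0.01% BSA; read 525/598 nm at 0 and 30 min.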
Active calls of the source: *; u = inconclusive; x = not tested or not shown; [ ] = remark or other dose. An unsorted share of the library; about 4.9% have a hit in one of these screens.

SMILES	TRPML1 blocker	Menin-MLL FL inh	gsp antagonist	ClpP mod	gsp agonist	TRPV1 potentiator	Sfp inh
c1ccc2oc(NC3=NCN(C4CCCCC4)CN3)nc2c1	1	6.8	4%	x	29%	10	13%
O=C(CN(Cc1ccco1)C(=O)Cn1nnc(-c2ccc(F)cc2)n1)NC1CCCC1	-11	3.9	-4%	-1.6%	-4%	-5	11%
Cc1cc(C)c2c(N)c(C(=O)N3CCc4ccccc4C3)sc2n1	12	0.0	1%	-25%	u	-10	56µM*
CCn1c(-c2ccccc2)csc1=Nc1ccc(S(=O)(=O)O)cc1	16	11	11%	-1.6%	0%	-2	16%
COc1ccc(S(=O)(=O)CCC(=O)Nc2c(C)n(C)n(-c3ccccc3)c2=O)cc1	2	1.0	3%	-2.6%	-26%	7	11%
CCCn1ncc(C(=O)NC2CCCN(Cc3ccc(Cl)cc3)C2)c1C (stereo not drawn)	0	1.4	2%	-1.3%	u	-13	12%
O=c1c2ccccc2nnn1Cc1ccccc1Cl	-16	-1.2	-4%	-1.7%	u	-1	-13%
O/N=C/c1ccc2ccccc2c1	4	5.1	13%	x	4%[15.4 µM]	12	-19%
Cc1[nH]c2ccccc2c1C(=O)COC(=O)c1cccc(S(=O)(=O)N2CCCCC2)c1	2	4.7	-10%	-30%	8%[15.4 µM]	11	-4%
CCOc1ccc(NC(=O)CNC(=O)Cc2ccccc2)cc1	7	-0.2	8%	x	-19%[15.4 µM]	6	25%
CCN(CC)S(=O)(=O)c1ccc(Cl)c(NC(=O)c2cc(Cl)ccc2Cl)c1	-3	-2.3	u	1.5%	-21%	-8	8%
CCC(CC)C(=O)Nc1cccc(C(=O)NC(C)(C)C)c1	17	-1.1	17%	x	-6%[15.4 µM]	2	17%
CCNC(=O)c1cc(Cl)ccc1OC	u	0.7	11%	-1.5%	-11%	18	-2%
CN(C)S(=O)(=O)c1cccc(NC(=O)c2ccc(OC(F)(F)F)cc2)c1	1	-2.1	u	-0.8%	7%	-11	26%
O=C(Nc1ccc(S(=O)(=O)N2CCOCC2)cc1)c1ccc(Cl)cc1Cl	1	-0.3	-11%	0.1%	13%	-5	1%
CC(=O)c1ccc(N2CCCCC2)c(F)c1	-25	-2.3	x	x	0%[15.4 µM]	1	6%
CCC(c1nnc(SCc2nc3ccccc3s2)n1Cc1ccccc1)N(C)C (stereo not drawn)	26	7.4	-1%	-1.8%	-16%	x	-15%
COc1ccc(CCNC(=O)C2CCN(Cc3nc(-c4ccccc4C)oc3C)CC2)cc1OC	3	3.1	0%	1.2%	17%	5	2%
CCOC(=O)c1cnc2c(-c3ccc(F)cc3)cnn2c1C(F)(F)F	17	-1.1	-2%	-0.2%	1%[15.4 µM]	15	3%
N/C(=N\OC(=O)CCC1CCCCC1)c1ccccn1	1	-1.7	14%	2.0%	5%	-36	11%

For reference, part of the list above:
SMILES	TRPML1 blocker	Menin-MLL FL inh	gsp antagonist	ClpP mod	gsp agonist	TRPV1 potentiator	Sfp inh
CN(C)S(=O)(=O)c1cccc(NC(=O)c2ccc(OC(F)(F)F)cc2)c1	1	-2.1	u	-0.8%	7%	-11	26%
O=C(Nc1ccc(S(=O)(=O)N2CCOCC2)cc1)c1ccc(Cl)cc1Cl	1	-0.3	-11%	0.1%	13%	-5	1%

Continued:
SMILES	TRPML1 blocker	Menin-MLL FL inh	gsp antagonist	ClpP mod	gsp agonist	TRPV1 potentiator	Sfp inh
C=CCC[C@@H](Cc1ccc(F)cc1)C(=O)OC[C@@H](C)NC(=O)[C@H](CC=C)CC(=O)N(CCO)Cc1ccccc1	7	x	-14%	2.5%	x	x	x
C=CCNC(=O)CSc1nc2ccccc2c(=O)n1CCc1ccc(OC)c(OC)c1	1	3.1	-18%	-1.3%	-29%	-20	10%
COc1ccc(CC(=O)n2nc(-c3ccccc3)nc2NCc2ccco2)cc1	10	2.3	-1%	19%	-27%	u	-10%
CCOc1ccc(NC(=O)CN(C)C(=O)C(C)N2C(=O)c3ccccc3C2=O)cc1OCC (stereo not drawn)	12	x	0%	0.8%	-56%[inhibitor]	24	x
O=C(c1ccco1)N1CCN(CCCCN2C(=O)c3ccccc3C2=O)CC1	-11	1.7	2%	0.4%	-14%	u	3%
CCOC(=O)Cc1csc(Nc2ccc(Cl)cc2)n1	14	2.4	-13%	-2.7%	-13%	9	14%
COc1cccc(CN(C(=O)c2cc3ccccc3oc2=O)C2CCS(=O)(=O)C2)c1 (stereo not drawn)	20	-6.9	9%	-7.5%	-41%[inhibitor]	5	12%
Cc1ccc(C)c(NC(=S)NCC(c2ccccc2)N(C)C)c1 (stereo not drawn)	-18	2.3	-6%	-0.3%	3%[15.4 µM]	-5	-1%
Cc1ccc(C)c(C(=O)CSc2n[nH]c(C(C)C)n2)c1	10	-0.9	4%	0.9%	20%	-1	-7%
CCOc1ccc(C(=O)CC(NCc2cccs2)C(=O)O)cc1 (stereo not drawn)	3	6.9	x	x	-4%[15.4 µM]	7	11µM*
CN(C)c1ccc(S(=O)(=O)NCC(=O)NCCOc2ccccc2F)cc1[N+](=O)[O-]	-14	x	-1%	-3.0%	-8%	-9	x
C#CCNC(=O)C1=C[C@H](C2CCCCC2)C[C@H](OCc2ccc(CO)cc2)O1	11	2.5	-13%	-3.3%	x	u	-7%
Cc1cc2nc(C3CCCN(C(=O)NCc4ccccc4)C3)[nH]c2cc1C (stereo not drawn)	-5	-1.4	-2%	-0.5%	-21%	-5	17%

11 compounds from above, ordered by count of non-hydrogen atoms, rising:
SMILES	TRPML1 blocker	Menin-MLL FL inh	gsp antagonist	ClpP mod	gsp agonist	TRPV1 potentiator	Sfp inh
CCOC(=O)Cc1csc(Nc2ccc(Cl)cc2)n1	14	2.4	-13%	-2.7%	-13%	9	14%
Cc1ccc(C)c(C(=O)CSc2n[nH]c(C(C)C)n2)c1	10	-0.9	4%	0.9%	20%	-1	-7%
CCOc1ccc(C(=O)CC(NCc2cccs2)C(=O)O)cc1 (stereo not drawn)	3	6.9	x	x	-4%[15.4 µM]	7	11µM*
CCOC(=O)c1cnc2c(-c3ccc(F)cc3)cnn2c1C(F)(F)F	17	-1.1	-2%	-0.2%	1%[15.4 µM]	15	3%
Cc1cc2nc(C3CCCN(C(=O)NCc4ccccc4)C3)[nH]c2cc1C (stereo not drawn)	-5	-1.4	-2%	-0.5%	-21%	-5	17%
O=C(c1ccco1)N1CCN(CCCCN2C(=O)c3ccccc3C2=O)CC1	-11	1.7	2%	0.4%	-14%	u	3%
COc1ccc(CC(=O)n2nc(-c3ccccc3)nc2NCc2ccco2)cc1	10	2.3	-1%	19%	-27%	u	-10%
CN(C)c1ccc(S(=O)(=O)NCC(=O)NCCOc2ccccc2F)cc1[N+](=O)[O-]	-14	x	-1%	-3.0%	-8%	-9	x
C=CCNC(=O)CSc1nc2ccccc2c(=O)n1CCc1ccc(OC)c(OC)c1	1	3.1	-18%	-1.3%	-29%	-20	10%
CCOc1ccc(NC(=O)CN(C)C(=O)C(C)N2C(=O)c3ccccc3C2=O)cc1OCC (stereo not drawn)	12	x	0%	0.8%	-56%[inhibitor]	24	x
C=CCC[C@@H](Cc1ccc(F)cc1)C(=O)OC[C@@H](C)NC(=O)[C@H](CC=C)CC(=O)N(CCO)Cc1ccccc1	7	x	-14%	2.5%	x	x	x

Screening data (PubChem)
